Screening results from PubChem BioAssay.
PrP UTR inh: inhibition of PrP 5' UTR reporter expression; cell-based PrP 5' UTR mRNA reporter, plate reader; inhibition, % (test concentration not listed); actives 0.35% (n = 340,000);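 active means every replicate at 50% or more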;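 further: 0 = median of the neutral control wells; tested in H4 reporter cells; numbers are from one replicate; inactives centre near -14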
Bead autofluor: flagged as autofluorescent in microsphere protease counterscreen; compound autofluorescence counterscreen, microsphere flow cytometry; hits give high values; fluorescence intensity (test concentration not listed); actives 3.1% (n = 360,000); AID 624483;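 active means at least 3 SD above the mean of all compounds, about 16000 in these data; inconclusive means too few beads counted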;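 further: 100 nL of 1 mM stock went into each well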
Mtb hypoxia inh: PubChem AID 1159583. M. tuberculosis hypoxia-regulated fluorescent reporter, fluorescence. fluorescence inhibition, % (no concentration beside the values). actives 0.1% (n = 300,000);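 active means 35 to 45% if threefold the growth effect, above 45% if 1.5-fold the growth effect; inactive means the rest, general growth blockers included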;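 further: wells of about 50 µL received 100 nL stock; 0% = vehicle wells and 100% = reference inhibitor wells; whole bacteria with a GFP reporter of the hypoxia response; strong numbers were not always called active; many hits fall short of the cut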
Sa ugtP lethal: growth inhibition of ugtP-null S. aureus, primary screen, RN4220 ugtP deletion, OD600 | 16 h; some inactives read as strong as hits | growth inhibition, % (concentration not given with the values) | actives 0.54% (n = 330,000);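 active means z-score under -3 and OD600 up to 0.15 on both plates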;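 further: plate controls were untreated wells for no effect and antibiotic for full effect; wells of about 80 µL received 100 nL stock; the first replicate is given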
BJeLR viability: MLPCN primary cell-based screen for lethality selective to Ras in HRASV12 cells | BJeLR (HRASV12) viability, CellTiter-Glo ATP luminescence, 48 h; reference of the scale not given here | inhibition, % (concentration not given with the values) | actives 0.17% (n = 300,000);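 active means replicate mean above 50%; inconclusive means above 50% but judged a plate artefact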;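 further: 50 nL library stock added to about 25 µL; numbers are from one replicate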
Sa RN4220 lethal: growth inhibition of S. aureus RN4220, primary screen, OD600; 16 h; inhibition, % (concentration not given with the values); actives 0.33% (n = 330,000); AID 1259311, 2017;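 active means z-score of -3 or lower and OD600 up to 0.18 on both plates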;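 further: plate controls were untreated cells for no effect and reference antibiotic for full effect; stock transfer was 100 nL into about 80 µL; one replicate is shown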
Mtb hypoxia inh growth: also measured in Mtb hypoxia inh; calls as there; growth inhibition, %; measured here: M. tuberculosis growth (absorbance);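 0% = vehicle and 100% = reference antibiotic; read after six days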
Starred values were filed as active, the others as inactive; ? = inconclusive; . = no result given.

Value order – PrP UTR inh, Bead autofluor, Mtb hypoxia inh, Mtb hypoxia inh growth, Sa ugtP lethal, BJeLR viability, Sa RN4220 lethal
1) CCC(Oc1ccc(Br)cc1)C(=O)N1CCN(c2ncccn2)CC1 (centres undefined)
→ -3, 4035, 18, 11, 1, -1, -5.1
2) Cc1cccnc1NC(=O)CN1C(=O)NC(C)(c2ccc3ccccc3c2)C1=O (centres undefined)
→ -11, ?, -2, 0, 0, -1, -0.4
3) O=C(/C=C/c1ccco1)NC(=S)Nc1ccccc1N1CCOCC1
→ -32, 23214*, 5, 13, 98*, -4, 2.9
4) CCN(CC)S(=O)(=O)c1ccc(C)c(NC(=S)Nc2cccc(S(=O)(=O)N3CCCCCC3)c2)c1
→ -24, 9568, 12, 12, -18, 9, -3.1
5) Cc1ccc(C)c(/C=C(\C(=O)O)c2ccc(S(=O)(=O)N3CCCCC3)s2)c1
→ -11, 4756, 1, 8, 0, 4, 16
6) COc1ccc(O)c(/C=N/NC(=O)c2ccc(OCc3cccc(Br)c3)cc2)c1
→ 16, 9544, ., ., ., 28, .
7) COc1ccc(F)cc1CN1CCN(C(=O)CCC(=O)Nc2nnc(C3CCCCC3)s2)CC1
→ -13, 5327, -8, 11, -4, 5, 0.4
8) COc1ccc2[nH]c(C)c(CCN3C(=O)C4C5C=CC(C5)C4C3=O)c2c1 (centres undefined)
→ -13, 5778, ., ., -5, -5, -4.5
9) C/C=C/c1ccc(OC(C)=O)c(OC)c1
→ -7, 3814, ., ., ., -3, .
10) CCOc1cc(N2CCOCC2)c(OCC)cc1NC(=O)COC(=O)CCOc1cc(C)ccc1C
→ -37, 5047, -3, -5, 8, 4, 1.3
11) Cc1ccc2c(c1)-c1c(cnn1CC(=O)Nc1ccccc1N1CCN(C)CC1)CO2
→ -9, 4509, -4, -2, 11, -9, 16
12) O=C(CN1CCCCCC1)Nc1ccc([N+](=O)[O-])cc1Cl
→ -33, 3266, 13, 10, 14, 3, 2.3
13) C/C(=N\NC(=O)c1nc2ccccn2c1C)c1ccc2c(c1)OCO2
→ -10, 1947, ., ., ., 9, .
14) COc1cccc(C(=O)CSc2nnnn2C)c1
→ -25, 4142, ., ., 8, 1, 5.8
15) C=CCN(CC=C)S(=O)(=O)c1ccc(C(=O)Nc2nnc(CSC)o2)cc1
→ -7, 2581, 0, -1, 12, -2, 23
16) O=C(CCCn1c(SCC(=O)c2ccc(F)cc2)nc2ccccc2c1=O)NCc1ccccc1
→ -24, 8388, 15, 7, -4, 4, 3.3
17) CN(C1CCCCC1)S(=O)(=O)c1ccc2[nH]c(=O)oc2c1
→ -10, 4497, 11, -1, 2, -8, 5.9
18) CSc1nc(N)n2nc(-c3ccccc3)cc2n1
→ -91, 5298, -3, 14, -3, 7, 0.3
19) CCc1c(C(=O)NC2CCCCC2)[nH]c(C)c1C(C)=O
→ -16, 9232, -5, 12, -7, -2, 0.8
20) CC(=O)Nc1ccc(NC(=O)c2cc(-c3ccc(C)cc3O)n[nH]2)cc1
→ -13, 3628, -6, 12, 2, -6, 1.6
21) COc1cccc(C(=O)NCCN2CCN(c3ccc(Cl)cc3)CC2)c1
→ -12, 4188, 15, 6, 2, ., 7.7
22) Cc1ccc(SCC(=O)OCC(=O)NC2CCCCCCC2)cc1
→ -24, 6693, 9, 0, 2, -13, 3.3
23) COc1cnc(-c2ccccc2)nc1Oc1cccc(C)c1
→ -6, 3548, ., ., 64, -9, 2.1
24) Cc1ccc(NC(=O)Cn2cc(C(F)(F)F)cc(Cl)c2=O)cc1Cl
→ -32, 4812, 2, -5, 0, 5, 5.0
25) COC(=O)c1cccc(COC(=O)CNC(=O)c2ccco2)c1
→ -23, 20436*, 11, 9, -6, 1, 3.9
26) CCOC(=O)c1c(NC(=O)C2CCCCC2)sc2c1CCN(CC)C2
→ -49, 6156, 1, -1, 1, 13, -5.2
27) CCN(CC)C(=O)c1sc2nc(-c3ccccc3)ccc2c1N
→ -40, 4297, 7, 12, 1, -3, -2.0
28) Cc1c(NC(=O)C2CCCN2S(=O)(=O)c2ccc(Cl)cc2)c(=O)n(-c2ccccc2)n1C (centres undefined)
→ 0, 4520, -3, -7, 2, 10, -2.3
29) O=Cc1cc(N=Nc2ccccc2Cl)ccc1O
→ -30, 3992, 5, 19, 78, 4, 68
30) CCC(C)NS(=O)(=O)c1ccc(NC(=O)c2cccs2)cc1 (centres undefined)
→ -2, 4495, 3, 4, 9, 0, 11
31) Cc1cc(C(=O)Nc2sc(C)c(-c3ccc(F)cc3)c2C(N)=O)no1
→ -103, 3197, -1, 11, -13, 3, 4.2
32) Cc1c(C(=O)N/N=C/c2cccs2)nc2ccccn12
→ -11, 2718, ., ., ., 10, .
33) Nc1cccc2c1nnn2C1OC(CO)C(O)C(O)C1O (centres undefined)
→ 1, 5562, ., ., 5, -4, 2.0
34) O=C(Nc1ccc2oc(Cc3ccc(Cl)cc3)nc2c1)c1cccnc1
→ 5, 5827, 0, 1, 6, -2, -3.4
35) CC(C)(C)c1cc(CCC(=O)NCc2ccccn2)cc(C(C)(C)C)c1O
→ -15, 4009, -1, -5, -3, 17, 3.2
36) CNC(=O)Nc1cccc(-c2ccnc(C)n2)c1
→ -13, 5734, -15, 0, 2, -3, 5.1
37) CN(C)/C=N/c1c(C(=O)NCc2ccccc2)nnn1Cc1ccccc1
→ -10, 18876*, ., ., ., -10, .
38) COC(=O)c1ccc(C(=O)Nc2ccc3c(c2)C(=O)NC3=O)cc1
→ -21, 2981, -8, -2, -2, 12, 3.6
39) CC(O)C(NS(=O)(=O)c1ccc(Cl)cc1)C(=O)OCC(=O)c1c[nH]c2ccccc12 (centres undefined)
→ -16, 4278, 5, 2, 4, -3, 2.9
40) O=C(O)CCN1c2ccccc2Sc2ccccc21
→ 6, 3690, 10, -5, 2, 2, 9.8

Reprinted from the part before: four entries; new compounds follow.
Value order – PrP UTR inh, Bead autofluor, Mtb hypoxia inh, Mtb hypoxia inh growth, Sa ugtP lethal, BJeLR viability, Sa RN4220 lethal
37) CN(C)/C=N/c1c(C(=O)NCc2ccccc2)nnn1Cc1ccccc1
→ -10, 18876*, ., ., ., -10, .
38) COC(=O)c1ccc(C(=O)Nc2ccc3c(c2)C(=O)NC3=O)cc1
→ -21, 2981, -8, -2, -2, 12, 3.6
39) CC(O)C(NS(=O)(=O)c1ccc(Cl)cc1)C(=O)OCC(=O)c1c[nH]c2ccccc12 (centres undefined)
→ -16, 4278, 5, 2, 4, -3, 2.9
40) O=C(O)CCN1c2ccccc2Sc2ccccc21
→ 6, 3690, 10, -5, 2, 2, 9.8
41) Cc1cc(NCCCO)n2c(nc3ccccc32)c1C#N
→ 1, 2506, 6, 6, 4, 9, 1.0
42) CCCC/C(=N\NC(=O)c1ccc(Br)o1)c1ccccc1
→ -32, 10149, ., ., ., -6, .
43) O=c1cccc2n1CC1CC2CN(C(c2cccc(F)c2)c2sc3ncnn3c2O)C1 (centres undefined)
→ -25, 5540, 6, 6, 0, -10, -7.0
44) O=C(O)CC1(CC(=O)Nc2ccccc2N2CCOCC2)CCCC1
→ -24, ., 5, 0, 8, 3, 4.8
45) CCCCN(C(=O)c1cccc(S(=O)(=O)N(C)c2ccc(C)cc2)c1)c1c(N)n(CC(C)C)c(=O)[nH]c1=O
→ -7, 3507, -4, 11, -5, ., -4.3
46) O=C(Nc1ccccc1F)NC1CCCCCCC1
→ -41, 6439, -7, 0, 4, 1, 2.2
47) CC(C)(C)C(=O)N1CCN(c2nc3ccccc3s2)CC1
→ -81, 4238, 8, 5, 3, 0, 0.6
48) CCN(CC(=O)Nc1c(F)cccc1F)C(=O)c1ccc(S(=O)(=O)NCc2ccco2)cc1
→ 5, 5972, 3, 7, 8, 2, 3.9
49) COc1ccc(NC(=O)CCCCCN2C(=O)CCC2=O)cc1Cl
→ -27, 10123, -1, 7, 5, -4, 3.1
50) CC(=O)c1cccc(NC(=S)NC(=O)c2ccc(C)cc2Cl)c1
→ -37, 2630, ., ., ., 0, .
51) CCCCOC(=O)c1ccc(NC(=O)CSc2nnnn2C)cc1
→ 0, 4359, 4, 9, 12, -3, 5.7
52) O=C(Nc1cccc(-c2nnc(-c3ccco3)o2)c1)c1ccccc1
→ -7, 4685, -4, -10, -6, 3, 5.9
53) COc1ccc(NC(=O)c2ccc(OC(=S)N(C)c3ccc(OC)cc3)cc2)cc1
→ -23, 4282, 2, 10, -3, -3, 0.5
54) CN(C)S(=O)(=O)c1ccc(Cl)c(NC(=O)COC(=O)C2CCCO2)c1 (centres undefined)
→ -13, 4740, 13, -9, 9, -8, 3.7
55) CCCCN(C)S(=O)(=O)c1ccc(C(=O)Nc2nnc(CSC)o2)cc1
→ 5, 3491, 13, 11, 4, 4, 16
56) Cc1ccc(C(=O)Nc2cccc(NC(=O)CN3CCCCC3)c2)cc1
→ -5, 4395, 3, 2, 11, 3, -1.9
57) C/C=C/c1ccc(OCCOc2cccc3cccnc23)c(OC)c1
→ -13, 2273, 7, 3, -6, -1, 4.8
58) CCSc1nnc(-c2ccc(S(=O)(=O)N3CCOCC3)cc2)n1C
→ -3, 3218, -3, 1, 3, 9, -1.7
59) O=C(Nc1ccc(F)c(F)c1)c1cccnc1
→ -10, 2792, ., ., 6, 5, -3.9
60) CC(C)Cn1cc(C(=O)N2CCN(c3ccccn3)CC2)c2c3ccccc3n(C)c2c1=O
→ -13, 16320*, 2, 1, 6, 5, 1.2
61) Cc1cc(C)c(C)c(OC(=O)c2sc(Cl)nc2C)c1
→ -3, 1882, 16, 5, 30, 9, 2.5
62) CS(=O)(=O)n1nc(-c2ccccc2)nc1NCc1ccco1
→ -28, 4743, ., ., -5, -10, 4.0
63) CC1CC(C)CN(S(=O)(=O)c2ccccc2[N+](=O)[O-])C1 (centres undefined)
→ -20, 2874, 18, -1, 11, 1, 7.8
64) COc1ccccc1C(=O)Nc1ccccc1N1CCCCC1
→ -9, 4155, 9, -1, 33, -7, 1.6
65) CC(=O)c1ccc(NS(=O)(=O)c2ccc(-c3cnc(C4CC4)o3)cc2)cc1
→ -21, 5012, 2, 7, 1, 4, 1.8
66) COc1cc(-c2nc(-c3ccccc3)c(-c3cccs3)[nH]2)cc(OC)c1OC
→ -24, 11656, 1, 8, -1, 7, -8.2
67) CNC(=O)C1=C(C)NC(=S)NC1c1cc2c(cc1OC)CCCC2 (centres undefined)
→ -19, 6561, 5, 11, 13, 0, 2.9
68) O=C(ON=C1CCS(=O)(=O)c2sccc21)C1CC1
→ ., ., 18, 15, 2, ., 3.4
69) COc1cc2[nH]c(C(=O)N3CCC(Cc4ccccc4)CC3)cc2c(OC)c1OC
→ -10, 3736, 2, 10, 11, 1, 0.8

Ordered by count of non-hydrogen atoms (highest first): some entries from above
Value order – PrP UTR inh, Bead autofluor, Mtb hypoxia inh, Mtb hypoxia inh growth, Sa ugtP lethal, BJeLR viability, Sa RN4220 lethal
66) COc1cc(-c2nc(-c3ccccc3)c(-c3cccs3)[nH]2)cc(OC)c1OC
→ -24, 11656, 1, 8, -1, 7, -8.2
62) CS(=O)(=O)n1nc(-c2ccccc2)nc1NCc1ccco1
→ -28, 4743, ., ., -5, -10, 4.0
61) Cc1cc(C)c(C)c(OC(=O)c2sc(Cl)nc2C)c1
→ -3, 1882, 16, 5, 30, 9, 2.5

Compounds were not picked by outcome; 4% or so of the library scored in one or more.
